gsp antagonist = gsp mutant antagonism | Potency, µM (series often up to 76.9 µM), without a hit: top-dose activity change, negative = inhibition, actives largely listed as inhibitors | 340,000 tested, 0.4% active | AID 624288 | gsp-mutant cells, cAMP HTRF, 30 min; control for the full effect not named in the record; active = falling curve of any shape with a large fitted effect; inconclusive = falling curve, mostly with a smaller effect; inactive = flat or rising curve; cell line not stated here;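 further: intracellular cAMP measured with PDE inhibitor Ro 20-1724 present during compound exposure; potency means the concentration at half of the fitted maximal effect; on the % scale 0 is the no-effect control and ±100 the full control effect; nearly all actives have a fitted effect of over 65% in size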
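Cells, 2000/well, grown 16–24 h in DMEM 10% FBS with 0.5 mg/ml G418, then compounds plus […] (300 uM addition stock), 30 min at 37C. cAMP read by HTRF (cAMP-d2 and anti-cAMP antibody-K in lysis buffer) after 30 min RT.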
Sfp PPTase inh = inhibitors of Bacillus subtilis Sfp phosphopantetheinyl transferase. Q9F4F7. Biochemical Sfp PPTase activity, qHTS. Potency, µM, for the others: max response, negative = inhibition, hits mostly inhibitors. 310,000 tested, 3.5% active. AID 1490; active means well fitted inhibition curve with a large enough effect; inconclusive means small, poorly fitted or top-dose-only effect, or another doubt; inactive means no such curve, though single readings can be large or run the other way;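 further: the enzyme is Sfp with the accession as filed and its product quenches rhodamine fluorescence; potency means the concentration at half of the fitted maximal effect; 0% = enzyme reaction without inhibitor and -100% = no enzyme wells; top concentration of the series not given in the record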
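After 15 min at room temperature with compound, 15 nM Sfp received 5 uM rhodamine-CoA plus 12.5 uM BHQ-2-ybbR (50 mM Hepes pH 7.6, 10 mM MgCl2). Rate came from the fluorescence difference over 30 min, ex 525/em 598 nm.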
TRPML1 blocker = human mucolipin-1 channel inhibition; Q9GZU1; TRPML1-inducible cells, Ca2+ dye fluorescence, FDSS; active compounds read low; inhibition of EC80 agonist-evoked calcium signal; activity change, negative = inhibition, % (no concentration beside the values); 390,000 tested, 0.02% active; in the data active means activity change below about -50%; inconclusive means about -30% to -50%; inactive means above about -30%;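 further: stimulus is agonist 54-4 at its EC80 concentration; on the % scale 0 is the no-effect control and ±100 the full control effect; compound concentration not given in the record; the text of the record puts the active cut at -80%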
Target sequence (Q9GZU1 whole entry, looked up): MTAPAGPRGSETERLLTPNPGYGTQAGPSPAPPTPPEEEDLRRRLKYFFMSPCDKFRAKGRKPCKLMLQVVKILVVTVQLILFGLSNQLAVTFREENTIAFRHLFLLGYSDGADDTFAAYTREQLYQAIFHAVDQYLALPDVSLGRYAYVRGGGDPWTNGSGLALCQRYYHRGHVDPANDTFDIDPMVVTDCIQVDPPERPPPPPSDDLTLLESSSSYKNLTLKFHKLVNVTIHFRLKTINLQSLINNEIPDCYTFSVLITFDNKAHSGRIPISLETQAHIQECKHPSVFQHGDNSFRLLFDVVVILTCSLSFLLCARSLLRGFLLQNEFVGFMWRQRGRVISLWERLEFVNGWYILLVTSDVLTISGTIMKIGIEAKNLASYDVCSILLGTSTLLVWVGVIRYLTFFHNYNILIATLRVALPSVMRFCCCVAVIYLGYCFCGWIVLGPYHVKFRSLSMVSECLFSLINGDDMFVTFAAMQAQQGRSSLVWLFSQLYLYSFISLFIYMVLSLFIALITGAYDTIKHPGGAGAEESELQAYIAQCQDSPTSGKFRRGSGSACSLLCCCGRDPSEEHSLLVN
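TRPML1-DL cells, Tet-induced overnight (~16 h, 37 °C) at 1,500 cells/well, were loaded with Ca8 no-wash dye plus quencher for 45-90 min at room temperature. Compounds were pinned during FDSS kinetic reading; agonist 54-4 at EC80 (4 uM final) then added.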
TRPV1 PAM = potentiators of human vanilloid receptor 1 (TRPV1). Q8NER1. TRPV1-expressing cells, Fluo-8 calcium influx, capsaicin EC20 potentiation; host cell line not named in the record; control for the full effect not named in the record. potentiation, % at 8.33 µM. 320,000 tested, 0.02% active; active means potentiation above 80%; inconclusive means 30% to 80%; inactive means below 30%; further: 0% is about no effect
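Cells expressing TRPV1 were dye-loaded with Fluo-8 and read kinetically: 10 s baseline, 3 min after compound (agonist portion), then 2 min after EC20 capsaicin (allosteric enhancer portion). Calcium-bound dye fluorescence at 480/520 nm.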
ClpP mod = qHTS Assay for Activators of ClpP; 340,000 tested, 1.9% active; purified B. subtilis ClpP, FRET peptide cleavage, 20 min; Potency, µM (doses to about 57.5 µM), inactives show at the highest dose activity change, negative = active; active = well fitted falling curve with a large enough effect; inconclusive = small, poorly fitted or top-dose-only effect; inactive = no such curve, though single readings can be large or run the other way; further: potency means the concentration at half of the fitted maximal effect; the source files actives as falling curves though it sought activators and does not explain the sign; nearly all actives have a fitted effect of over 65% in size; many hits overshoot -100%
Target sequence (P80244 whole entry, looked up): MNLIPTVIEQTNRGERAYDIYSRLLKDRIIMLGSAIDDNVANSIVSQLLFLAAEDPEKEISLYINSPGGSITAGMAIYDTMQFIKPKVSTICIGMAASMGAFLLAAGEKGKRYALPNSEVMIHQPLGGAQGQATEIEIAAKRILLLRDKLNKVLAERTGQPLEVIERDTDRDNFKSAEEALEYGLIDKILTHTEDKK
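FRET quenching reversal measured ClpP activation: 10 microg/mL B. subtilis ClpP at pH 8 with the FRET-FV decapeptide, read at 430 nm after 320 nm excitation. The 20-min minus 0-min signal was scaled between DMSO/no-enzyme wells and ADEP (5.8 microM final).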
Menin-MLL FL inh = displaces fluorescein MLL peptide from human menin | AID 1766 | FP activity change, % at 61.4 µM | 290,000 tested, under 10 active | Fluorescence polarization, fluorescein-MLL peptide displacement from menin; inconclusive = falling polarisation curve, or a change in total fluorescence; inactive = total fluorescence flat and polarisation flat or rising; no compound was filed as active; the % refers to the polarisation; negative = inhibition;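 further: % of control where 0% means no effect; inhibitors lower the polarisation; unlabelled MLL peptide was the positive control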
gsp agonist = gsp mutant agonism; gsp mutant cells, cAMP HTRF, 30 min; control for the full effect not named in the record; 340,000 tested, 0.13% active; Potency, µM (top dose mostly 76.9 µM), without a hit: at the highest dose activation (cAMP increase), usual class: activators; active = well fitted activation curve with a large enough effect; inconclusive = small, poorly fitted or top-dose-only effect, or another doubt; inactive = no such curve, though single readings can be large or run the other way; cell line not stated here;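 further: phosphodiesterase inhibitor Ro 20-1724 added with compounds to block cAMP breakdown; potency means the concentration at half of the fitted maximal effect; nearly all actives have a fitted effect of over 60% in size; about a fifth of the inactives were tested at one dose only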
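Cells in DMEM/10% FBS with G418 were pretreated with compounds in DMSO plus […] (300 uM stock) for 30 min at 37C. cAMP was measured by HTRF (cAMP-d2 plus anti-cAMP antibody-K) after 30 min at room temperature.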
* marks the source's active call; other numbers are inactive results; ? = inconclusive; · = not tested or not shown; & = joins results of further samples; [ ] = remark or other dose. Hits appear at their usual frequency (roughly 4.9% active in at least one column).

SMILES | gsp antagonist | Sfp PPTase inh | TRPML1 blocker | TRPV1 PAM | ClpP mod | Menin-MLL FL inh | gsp agonist
COc1ccc(NC(=O)CCC(=O)Nc2ccc3nc(N4CCOCC4)cc(C)c3c2)c(OC)c1 | 9% | 1% | 4 | -15 | · | 4.4 | 1%
OCCNc1nc(Cl)nc(NCc2ccco2)n1 | -5% | 29% | 16 | 1 | 1.0% | 3.0 | 12%
CCOC(=O)c1c(C)oc2ccc(OCC(N)=O)cc12 | 4% | 15% | -1 | -30 | -3.5% | 0.7 | 6%
COc1cc(C(=O)OCC(=O)Nc2ccc(C(C)=O)cc2)ccc1OCC(=O)N1CCOCC1 | 2% | -11% | -7 | -4 | -1.9% | 5.5 | -57%[inhibitor]
CCOc1ncccc1C(=O)Nc1c(C)n(C)n(-c2ccccc2)c1=O | 10% | -5% | 30 | -1 | · | -4.4 | -6%[15.4 µM]
O=C(COc1cc2oc(=O)c3c(c2cc1Cl)CCC3)N1C[C@H]2C[C@@H](C1)c1cccc(=O)n1C2 | -4% | 4% | · | 4 | -23% | 5.8 | ·
Cc1cc(/C=N/NC(=O)c2cccc(N(C)C)c2)c(C)n1-c1cc(C(=O)O)cc(C(=O)O)c1 | -7% | -6% | -17 | -14 | · | 13 | -7%[15.4 µM]
COc1cc(Br)c(/C=C/c2ccc3cccc(O)c3n2)cc1OC | 5% | 9% | -5 | 11 | -6.2% | -0.4 | -1%
O=S(=O)(Cc1ccccc1)N1CCN(Cc2c(F)cccc2Cl)CC1 | 11% | · | 8 | -1 | 1.3% | · | -28%
O=[N+]([O-])c1cccc2cn[nH]c12 | 2% | -7%&-11%&11% | 5 | 5 | -1.4% | ? | ·
Cc1cc2c(cc1C)CSC(c1ccccc1O)SC2 | ? | 9% | -1 | 0 | 0.7% | 5.9 | -40%[inhibitor]
CC(=O)Nc1ccc(S(=O)(=O)Nc2ncccn2)cc1 | 11% | 6% | -2 | -10 | -1.2% | 5.2 | 4%
COc1ccc(C2c3cc4c(cc3OC(N3CCOCC3)C2C)OCO4)c(OC)c1 (centres undefined) | 2% | · | 22 | · | 4.9% | · | 27%
Cc1ccc(NS(=O)(=O)c2cc(C(=O)NCc3ccncc3)ccc2C)cc1 | 4% | 7% | -2 | 1 | -1.0% | · | -13%[15.4 µM]
COC(=O)CN1C(=O)[C@H]2[C@@H](c3ccc(C)o3)N3C(=O)CN(Cc4ccccn4)C(=O)[C@@]3(C)[C@H]2C1=O | 10% | ? | 9 | -7 | -2.5% | 0.1 | -27%
C=CCCC(=O)N(C)CCO | 7% | · | -2 | -5 | 0.0% | · | 8%
Cc1ccc2c(CC(=O)NNC(=O)c3ccccc3)coc2c1 | 5% | 2% | 6 | 7 | · | 4.5 | -25%[15.4 µM]
Cc1cc(OC(C)C(=O)N(Cc2ccco2)C2CCS(=O)(=O)C2)ccc1Cl (centres undefined) | 1% | 12% | -10 | 16 | -0.2% | 1.1 | -54%[inhibitor]
CCc1ccccc1NC(=O)CSC1=C(C#N)C(c2ccc(O)c(OC)c2)C2=C(CCCC2=O)N1 (centres undefined) | -18% | ? | -17 | -3 | 0.6% | -0.4 | -3%
COc1ccc2[nH]c3c(c2c1)CN(C)CC3 | -12% | 4% | 5 | 1 | -5.9% | 1.6 | 9%
Cc1nn(CC(=O)N2CCN(C)CC2)c(=O)c2c1sc1ccccc12 | -11% | 13% | -12 | 20 | 4.0% | 3.3 | -28%
NS(=O)(=O)c1ccc(CCNC(=O)c2ccc3c(=O)n4c(nc3c2)CCCCC4)cc1 | 15% | · | -12 | · | -15% | · | -29%
COCCn1nnnc1C(c1cccs1)N1CCN2CCCC2C1 (centres undefined) | 7% | 11% | 25 | 8 | · | -1.7 | 12%[15.4 µM]
Cc1[nH]c(=O)[nH]c(=O)c1NS(=O)(=O)c1ccc2c(c1)CCCC2 | -6% | 16% | -16 | 5 | -2.5% | -0.2 | -1%
CCC1(c2ccc(F)cc2)NC(=O)NC1=O (centres undefined) | 16% | 15% | -6 | -3 | · | -1.0 | -11%[15.4 µM]

Eight of the compounds above, as a markdown table:
| smiles | gsp antagonist | Sfp PPTase inh | TRPML1 blocker | TRPV1 PAM | ClpP mod | Menin-MLL FL inh | gsp agonist |
| --- | --- | --- | --- | --- | --- | --- | --- |
| COc1ccc(NC(=O)CCC(=O)Nc2ccc3nc(N4CCOCC4)cc(C)c3c2)c(OC)c1 | 9% | 1% | 4 | -15 | · | 4.4 | 1% |
| OCCNc1nc(Cl)nc(NCc2ccco2)n1 | -5% | 29% | 16 | 1 | 1.0% | 3.0 | 12% |
| CCOC(=O)c1c(C)oc2ccc(OCC(N)=O)cc12 | 4% | 15% | -1 | -30 | -3.5% | 0.7 | 6% |
| COc1cc(C(=O)OCC(=O)Nc2ccc(C(C)=O)cc2)ccc1OCC(=O)N1CCOCC1 | 2% | -11% | -7 | -4 | -1.9% | 5.5 | -57%[inhibitor] |
| CCOc1ncccc1C(=O)Nc1c(C)n(C)n(-c2ccccc2)c1=O | 10% | -5% | 30 | -1 | · | -4.4 | -6%[15.4 µM] |
| O=C(COc1cc2oc(=O)c3c(c2cc1Cl)CCC3)N1C[C@H]2C[C@@H](C1)c1cccc(=O)n1C2 | -4% | 4% | · | 4 | -23% | 5.8 | · |
| Cc1cc(/C=N/NC(=O)c2cccc(N(C)C)c2)c(C)n1-c1cc(C(=O)O)cc(C(=O)O)c1 | -7% | -6% | -17 | -14 | · | 13 | -7%[15.4 µM] |
| COc1cc(Br)c(/C=C/c2ccc3cccc(O)c3n2)cc1OC | 5% | 9% | -5 | 11 | -6.2% | -0.4 | -1% |

New compounds follow
SMILES | gsp antagonist | Sfp PPTase inh | TRPML1 blocker | TRPV1 PAM | ClpP mod | Menin-MLL FL inh | gsp agonist
COCCN1CC(O)=C(c2nc3ccccc3c(=O)[nH]2)C1=N | 8% | 1% | 14 | -1 | ? | -1.0 | -1%
COc1cc(-c2noc(C)c2C#CC2(O)CCCCC2)cc(OC)c1OC | 10% | -5% | 69 | 17 | -0.7%&-3.6% | -6.2 | 14%
CC(=O)c1ccc(OCCn2cnc3ccccc32)cc1 | 15% | 5% | 9 | 12 | 0.8% | 9.5 | -24%
CCn1nc(C(=O)Nc2nc3ccc(C)cc3s2)c2ccccc2c1=O | 3% | 3% | -12 | 13 | -3.1% | 1.7 | -15%
COc1ccccc1NC(=S)NC(=O)c1ccc(Cn2cc(Br)cn2)cc1 | -1% | -27% | -13 | -7 | 0.6% | 3.0 | -2%[15.4 µM]
CN(CCO)c1nc(N)c2c(N)nc3c(c2c1C#N)CC(=O)N3Cc1cccs1 | 9% | ? | 5 | 9 | 3.6% | -1.2 | 11%
COc1cc(CNCCNCC(C)O)ccc1OCc1ccc(Cl)nc1 (centres undefined) | 12% | 11% | -24 | 6 | -1.2% | 5.0 | -1%
CC1CCN(S(=O)(=O)c2cn(CC(=O)N3CCN(c4cccc(C(F)(F)F)c4)CC3)cn2)CC1 | -2% | 7% | 3 | 1 | -2.0% | · | -38%[inhibitor]
CCN(CC)C(=O)C1CCCN(C/C=C/c2ccccc2)C1 (centres undefined) | 8% | -30% | 1 | -4 | 0.7% | 4.0 | 5%
COc1ccc(C(=O)NC2CC2)cc1OC1CCN(Cc2cc(C)cc(C)c2)CC1 | 3% | -1% | -11 | -24 | -0.7% | 3.0 | 0%[15.4 µM]
COc1ccc(NC(=O)CCNS(=O)(=O)c2cccc(C(C)=O)c2)cc1S(N)(=O)=O | 1% | 8% | -2 | 21 | -3.7% | 0.7 | 3%[15.4 µM]
Fc1cccc(Oc2nc3ccccc3n3cccc23)c1 | -1% | 4% | 2 | 4 | 22µM* | -0.3 | 2%
Cc1c(Cl)cccc1NC(=S)N1CCN(c2ncccn2)CC1 | -10% | -23% | 7 | -18 | -3.6% | 4.9 | 16%
Clc1ccc(N2CCCCCC2)nn1 | 14% | 9% | -2 | · | -2.8% | -0.1 | 12%
O=C(CCc1ccccc1)Nc1ncc2c(n1)CCCC2=O | -5% | 0% | 62 | 8 | 1.2% | 3.8 | 1%
CCO/C=C1\C(=O)N(c2ccc(OCC)cc2)C(=O)c2ccccc21 | -5% | 3% | 28 | 15 | ? | 1.5 | ?
O=C(Nc1ccc(N2CCN(C(=O)c3cccs3)CC2)cc1)c1ccccc1F | -6% | -13% | -13 | 13 | · | -2.4 | 0%
Cc1cc(C)cc(NC(=O)c2ccc(S(=O)(=O)N(C)CC3CCCO3)cc2)c1 (centres undefined) | -11% | 2% | -6 | 5 | -2.0% | · | -3%[15.4 µM]
CC(C)CNC(=O)c1c2c(nc3ccccc13)-c1ccccc1CC2 | -11% | 4% | 1 | -16 | 28µM* | 5.4 | 18%
CCCC(=O)Nc1nnc(-c2cccc(OCC)c2)s1 | 17% | 15% | -9 | 0 | 28µM* | 1.1 | 30%
O=C(Nc1ccc(N2CCOCC2)cc1)c1ccc([N+](=O)[O-])o1 | -8% | 15% | 12 | -28 | · | 2.8 | -9%
O=C(Nc1cc(C(F)(F)F)ccc1Cl)c1cc(C2CC2)on1 | 9% | 15% | 15 | 4 | 17% | -0.3 | -13%
COC(=O)c1ccccc1C(=O)N1CCCC(C(=O)c2cc(F)ccc2F)C1 (centres undefined) | -3% | 14% | 6 | 13 | · | -4.2 | 2%[15.4 µM]
COc1ccc(C(=O)COC(=O)c2sc(C)nc2C)cc1Cl | -22% | · | 18 | 8 | 0.6% | · | -3%
Cc1ccc(C(=O)N2CCN(c3cccc(C)c3C)CC2)o1 | 17% | 0% | 12 | -12 | -0.7% | 5.6 | 27%
O=C(NCc1ccccc1F)c1cc(=O)[nH]c2ccccc12 | 1% | 1% | 29 | 0 | · | -0.9 | 12%
Cn1c(N)c(C(=O)COC(=O)COc2cc(Cl)c(Cl)cc2Cl)c(=O)n(C)c1=O | 5% | · | -4 | · | · | · | -8%
CN(C(=O)c1cccn(Cc2ccccc2)c1=O)c1ccccc1 | 2% | 8% | 19 | 0 | · | 1.7 | -3%[15.4 µM]

Compound activity as filed in PubChem BioAssay.
